BJeLR lethal – BJeLR cell viability loss | inhibition, % (no concentration beside the values) | BJeLR (HRASV12) viability, CellTiter-Glo ATP luminescence, 48 h; reference of the scale not given here | AID 1554 | 300,000 compounds, 0.17% hits;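 active means replicate mean above 50%; inconclusive means above 50% but judged a plate artefact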;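 further: 50 nL library stock added to about 25 µL; numbers are from one replicate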
RN4220 kill – S. aureus RN4220 growth inhibition; AID 1259311; OD600, 16 h; inhibition, % (no concentration beside the values); 330,000 compounds, 0.33% hits;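 active means z-score of -3 or lower and OD600 up to 0.18 on both plates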;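 further: plate controls were untreated cells for no effect and reference antibiotic for full effect; stock transfer was 100 nL into about 80 µL; one replicate is shown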
Mtb hypoxia inh – reduces hypoxia-regulated biosensor signal in M. tuberculosis. M. tuberculosis hypoxia-regulated fluorescent reporter, fluorescence. fluorescence inhibition, % (test concentration not listed). 300,000 compounds, 0.1% hits;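 active means 35 to 45% if threefold the growth effect, above 45% if 1.5-fold the growth effect; inactive means the rest, general growth blockers included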;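 further: wells of about 50 µL received 100 nL stock; 0% = vehicle wells and 100% = reference inhibitor wells; whole bacteria with a GFP reporter of the hypoxia response; strong numbers were not always called active; many hits fall short of the cut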
PrP UTR inh – inhibition of PrP 5' UTR reporter expression; cell-based PrP 5' UTR mRNA reporter, plate reader; inhibition, % (concentration not given with the values); 340,000 compounds, 0.35% hits;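 active means every replicate at 50% or more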;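 further: 0 = median of the neutral control wells; tested in H4 reporter cells; numbers are from one replicate; inactives centre near -14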
Autofluor counter – compound fluorescence in toxin protease inhibitor counterscreen; compound autofluorescence counterscreen, microsphere flow cytometry; stronger effect = higher value; fluorescence intensity (test concentration not listed); 360,000 compounds, 3.1% hits; AID 624483;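 active means at least 3 SD above the mean of all compounds, about 16000 in these data; inconclusive means too few beads counted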;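 further: 100 nL of 1 mM stock went into each well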
ugtP null kill – kills S. aureus RN4220 lacking UgtP; growth inhibition, % (test concentration not listed); S. aureus RN4220 ugtP deletion, OD600 growth, 16 h; some inactives read as strong as hits; 330,000 compounds, 0.54% hits;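 active means z-score under -3 and OD600 up to 0.15 on both plates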;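 further: plate controls were untreated wells for no effect and antibiotic for full effect; wells of about 80 µL received 100 nL stock; the first replicate is given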
Mtb hypoxia inh growth – further read-out of Mtb hypoxia inh, marked with its call; growth inhibition, %; measured here: M. tuberculosis growth (absorbance);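 0% = vehicle and 100% = reference antibiotic; read after six days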
* = called active by the depositor; ? = inconclusive; . = no result given; & = joins results of further samples. An unsorted share of the library; 4.1% or so of the library scored in one or more.

SMILES | BJeLR lethal | RN4220 kill | Mtb hypoxia inh | Mtb hypoxia inh growth | PrP UTR inh | Autofluor counter | ugtP null kill
O=C(Nc1ccc(Br)cc1)C1CCN(c2cnccn2)CC1 | -2 | 1.9 | 5 | 3 | -2 | 4407 | 2
Cc1cccc(NC(=O)c2cccc(S(=O)(=O)N3CCCC3)c2)n1 | 0 | 2.7 | 3 | -1 | -17 | 5251 | 1
COc1ccc(-n2ccnc(SCC(=O)NC3CCCC3)c2=O)cc1 | 1 | 1.2 | 2 | -10 | -13 | 4111 | 5
O=C(Cn1nnc(-c2ccccc2)n1)N/N=C/c1ccc(-c2ccc(Cl)cc2)o1 | 5 | . | . | . | -12 | 9382 | .
COc1ccc(-c2csc3ncn(-c4ccc(C)cc4)c(=O)c23)cc1OC | 1 | 13 | 11 | 8 | -23 | 3635 | 5
COc1ccc2c(c1)CCC(C)N2S(=O)(=O)c1ccc(C2CNC(=O)C2)cc1 (configuration not stated) | 0 | 20 | 11 | 14 | -15 | 7847 | 9
Cc1ccnc(SCc2cn3c(C)cccc3n2)n1 | -3 | 9.6 | 11 | 1 | -19 | 4407 | 0
OCCNc1nc(Nc2ccccc2)nc(Nc2ccccc2)n1 | 3 | 5.7 | . | . | -9 | 4662 | -26
CCN(CC)CCNC1=NCCn2c1cc1cc(OC)ccc12 | 5 | 9.0 | 13 | 11 | -6 | 3936 | 10
CCCCCCCCC(=O)NN=C(C)c1cccnc1 | . | -6.9 | 0 | -3 | . | . | -6
O=C(NCC1COc2ccccc2O1)c1c[nH]c2ccc(S(=O)(=O)N3CCOCC3)cc2c1=O (configuration not stated) | . | -6.3 | 11 | 3 | -6 | 2857 | -4
COc1cccc(CNC(=O)COC(=O)CNC(=O)c2ccc(-c3ccccc3)cc2)c1 | . | -0.9 | 1 | -2 | . | 5228 | -4
C=CCOc1ccc(/C=N/O)cc1Cl | -4 | . | . | . | -21 | 2417 | .
N/C(COc1ccc(Cl)cc1)=N\NS(=O)(=O)c1ccccc1 | -1 | 2.8 | 6 | 5 | -8 | 10228 | -6
COc1ccc2cc(/C=N/NC(=O)c3c(Cl)cnn3C)c(Cl)nc2c1 | 9 | . | . | . | -6 | 2910 | .
CCOC(=O)COc1ccc(S(=O)(=O)NC2CC2)cc1 | -8 | 1.0 | 17 | 7 | -12 | 2870 | 8
COc1ccc(NC(=O)/C=C/c2ccc(C)o2)cc1S(=O)(=O)N1CCOCC1 | -13 | -2.2 | 0 | -3 | -37 | 2175 | -3
Cn1c(SCC(=O)NC2CCCCC2)nnc1-c1ccccc1O | -1 | 1.2 | 5 | 5 | -18 | 4790 | 2
Cc1cc(C)n2nc(SC(C)C(=O)N3CC(C)OC(C)C3)nc2n1 (configuration not stated) | . | 3.2 | 5 | -5 | -17 | 2928 | 9
Cc1ccc(C(CNS(=O)(=O)c2ccccc2)N2CCN(C)CC2)cc1 (configuration not stated) | 11 | 0.0 | 3 | 5 | 3 | 4914 | 2
Cc1ccc(S(=O)(=O)ON2C(=O)c3cccc4cccc(c34)C2=O)cc1 | 3 | 4.0 | 17 | -7 | -16 | 2532 | 7
CCCn1c(SCC(=O)N2CCCC2=O)nc2ccccc2c1=O | . | 1.3 | 10 | -5 | 2 | ? | 1
COC(=O)CCC(=O)OC1(C)C(=O)C2=CN(c3ccc(OC)cc3)C(c3ccc(OC)cc3)=CC2=C(Br)C1=O (configuration not stated) | 2 | . | . | . | -2 | 2143 | .
Cc1ccnn1CC(=O)N/N=C/c1cn[nH]c1-c1ccccc1 | -8 | . | . | . | -18 | 6822 | .

Structural class: the compounds so far with a Cl atom (4)
SMILES | BJeLR lethal | RN4220 kill | Mtb hypoxia inh | Mtb hypoxia inh growth | PrP UTR inh | Autofluor counter | ugtP null kill
O=C(Cn1nnc(-c2ccccc2)n1)N/N=C/c1ccc(-c2ccc(Cl)cc2)o1 | 5 | . | . | . | -12 | 9382 | .
C=CCOc1ccc(/C=N/O)cc1Cl | -4 | . | . | . | -21 | 2417 | .
N/C(COc1ccc(Cl)cc1)=N\NS(=O)(=O)c1ccccc1 | -1 | 2.8 | 6 | 5 | -8 | 10228 | -6
COc1ccc2cc(/C=N/NC(=O)c3c(Cl)cnn3C)c(Cl)nc2c1 | 9 | . | . | . | -6 | 2910 | .

(listing goes on)
SMILES | BJeLR lethal | RN4220 kill | Mtb hypoxia inh | Mtb hypoxia inh growth | PrP UTR inh | Autofluor counter | ugtP null kill
Cc1ccc(NC(=O)CN2CC(C)SC2=NC2CCCCC2)cc1 (configuration not stated) | . | 4.1&1.1 | -9 | 2 | -5&-28 | 3460&4277 | 10&-1
Cc1ccc(-c2ccc(/C=N/N3C(=O)C4C5C=CC(C6CC56)C4C3=O)o2)c([N+](=O)[O-])c1 (configuration not stated) | 0 | . | . | . | -14 | 2078 | .
COc1cc(C2NC(=O)NC(C)=C2C(=O)OC2CCC(C)CC2)ccc1O (configuration not stated) | -9 | 6.3 | 17 | 5 | -8 | 3876 | 5
CC(=NNC(=O)c1ccc(Cn2cccn2)o1)c1cccc(NC(=O)c2ccncc2)c1 | . | 1.6 | 11 | 4 | . | . | 10
Nc1nc(NCc2ccccc2)nc(Nc2ccc(F)cc2)c1[N+](=O)[O-] | 12 | -2.9 | -6 | -2 | -16 | 13444 | -8
COCCOc1nc2c(c(=O)n(C)c(=O)n2C)n1CCc1ccccc1 | 0 | -1.8 | 1 | 4 | -6 | 4605 | 1
COc1ccc(/C=C/C(=O)NCC(=O)NN=Cc2cccs2)cc1 | . | -0.1 | 1 | 10 | . | . | -8
CN(C)CCNC(=O)c1c(O)c2c([nH]c1=O)CCCC2 | 3 | 4.9 | 4 | 5 | -22 | 6432 | 0
CCOc1ccc(NC(=O)CCNS(=O)(=O)c2cccs2)cc1 | 1 | 3.3 | -2 | -5 | -28 | 10492 | 7
CC1NC(=O)NC1CCCCCC(=O)Nc1ccc(F)cc1 (configuration not stated) | 5 | 0.5 | -8 | 9 | -22 | 1622 | 1
Cc1cccc(-n2ncc3c2CCCC3NC(=O)C2(C(N)=O)CC2)c1C (configuration not stated) | 8 | 4.3 | 2 | -7 | -15 | 4546 | 11
CC(=O)NC1C(O)C=C(C(=O)O)OC1C(O)C(O)CO (configuration not stated) | . | 2.1 | -4 | 7 | . | . | -3
COc1cc(CCC(=O)OCC(=O)Nc2cccc(S(=O)(=O)N(C)C)c2)cc(OC)c1OC | 16 | 1.8 | -9 | -5 | 1 | 2064 | 4
CCOC(=O)CSc1cc(C(F)(F)F)nc(-c2ccccn2)n1 | -2 | 1.8 | 20 | 5 | -21 | 9129 | 0
COCCN(C(=O)Cc1cccs1)c1nnc(-c2cccnc2)s1 | -9 | 7.3 | . | . | 6 | 4824 | 8
COc1ccc2nc(SCC(C)=O)c(C#N)cc2c1 | 7 | 11 | 8 | 2 | -151 | 2520 | 16
COc1cccc(-c2nc(CS(=O)(=O)CC(=O)NC3CC3)c(C)o2)c1 | -12 | 5.3 | 3 | 0 | -13 | 5871 | 10
O=S(=O)(Cc1ccc(Cl)cc1)N1CCCCCC1 | 15 | 4.4 | 9 | 2 | -6 | 6179 | 1
Cc1oc(C(C)(C)C)cc1C(=O)N1CCN(C(c2ccccc2)c2ccccc2)CC1 | -1 | -10 | 14 | -2 | -31 | 3983 | 20
O=C(O)CCCC(=O)N1CCN(c2cccc(Cl)c2)CC1 | -7 | -9.8 | 24 | 10 | -17 | 3219 | 5
Cc1ccc(NNC(=O)c2cc(C(C)(C)C)nn2Cc2ccccc2)cc1 | -13 | -0.6 | 17 | 4 | 3 | 6010 | -1
Cc1cccc(CC(c2cccc(C)c2)N(C)C)c1 (configuration not stated) | . | 5.3 | 9 | -1 | -12 | 2947 | 9
CCc1nc2ccc(C(=O)NCc3ccc(C)o3)cc2nc1CC | 8 | 1.1 | 7 | 0 | -19 | 5344 | 4
COc1ccc(C2CC(c3ccccc3)=NN2C(=O)COC(=O)c2nc3nc(C)cc(C)n3n2)cc1 (configuration not stated) | 0 | 3.7 | -6 | 10 | -29 | 4248 | 6

Structures from the list above with an NH in an aromatic ring:
SMILES | BJeLR lethal | RN4220 kill | Mtb hypoxia inh | Mtb hypoxia inh growth | PrP UTR inh | Autofluor counter | ugtP null kill
O=C(NCC1COc2ccccc2O1)c1c[nH]c2ccc(S(=O)(=O)N3CCOCC3)cc2c1=O (configuration not stated) | . | -6.3 | 11 | 3 | -6 | 2857 | -4
Cc1ccnn1CC(=O)N/N=C/c1cn[nH]c1-c1ccccc1 | -8 | . | . | . | -18 | 6822 | .
CN(C)CCNC(=O)c1c(O)c2c([nH]c1=O)CCCC2 | 3 | 4.9 | 4 | 5 | -22 | 6432 | 0

Carrying on.
SMILES | BJeLR lethal | RN4220 kill | Mtb hypoxia inh | Mtb hypoxia inh growth | PrP UTR inh | Autofluor counter | ugtP null kill
COC(=O)c1sccc1NC(=O)CSCCc1ccccn1 | 17 | 4.5 | 1 | -3 | 3 | 2225 | 7
CC(=O)Nc1ccc(C(=O)OCC(=O)N2CCCC2)cc1 | -20 | 0.7 | 0 | 1 | -15 | 3704 | 14
CC1CCCCN1C(=O)COC(=O)c1ccc2c(c1)C(=O)N(Cc1ccco1)C2=O (configuration not stated) | . | 3.0 | 8 | 8 | -19 | ? | 10
C/C(Cc1ccccc1)=N\NC(=O)CNC(=O)Cc1ccccc1 | -4 | . | . | . | -17 | 5609 | .
COC(=O)C1=CC(C(=O)OC)C2C3=C(C(=O)[C@@]2(C)NC(=O)c2ccccc2)C(C)C(C(=O)OC)=C(C(=O)OC)C3C1 (some centres not stated) | . | 4.4 | 4 | 9 | . | . | 1
NC1CC1c1ccccc1 (configuration not stated) | . | 3.8 | 6 | 0 | . | . | -3
COCCCNC(=S)Nc1ccc(S(=O)(=O)Nc2cc(OC)nc(OC)n2)cc1 | 7 | -1.4 | 3 | 2 | -10 | 4279 | 8
COc1ccc(-n2c(SCC(=O)Nc3ccc(C)cc3)nc(O)c(Cc3ccccc3)c2=O)cc1 | -4 | -2.7 | 6 | -1 | -11 | 5147 | 5
CC(CC1CC(COCC(C)C)OC1=O)=NNc1nc(-c2ccccc2)cs1 (configuration not stated) | . | 5.3 | 6 | 4 | . | . | -5
CCc1cc2c(=O)oc(-c3ccccc3F)nc2s1 | -5 | 2.9 | 1 | 2 | -40 | 3595 | 5
CC(=O)Nc1ccc(S(=O)(=O)Nc2cc3c(cc2C(C)=O)OCO3)cc1 | 2 | 2.8 | 4 | 5 | 2 | 4000 | 6
COc1ccc(Cl)cc1C(=O)Nc1ccccc1N1CCCCC1 | -10 | -15 | 15 | 13 | -11 | 4079 | 7
Cc1ccc(C(=O)OC2CCN(c3ccc([N+](=O)[O-])cc3)CC2)cc1 | 7 | 1.5 | 11 | 2 | -38 | 5799 | 3
Cc1c(Cl)cccc1NC(=O)CC1SCCNC1=O (configuration not stated) | 8 | -3.9 | 0 | 6 | -38 | 15506 | -5
Cc1ccc(S(=O)(=O)N2CCN(C(=O)COC(=O)c3ccccc3OC(F)F)CC2)c(C)c1 | . | 0.3 | -7 | -1 | -33 | 3452 | 2
COc1ccc(C=NNc2cc(C)nc(-n3nc(C)cc3C)n2)cc1 | . | 13 | -12 | 1 | . | . | -9
Cc1ccc(NC(=O)N2CCCC2C(=O)NCCc2ccccc2)cc1 (configuration not stated) | 5 | 3.7 | 3 | 8 | -5 | 7720 | -3
O=C(Nc1ccc(N2CCOCC2)cc1)c1cccc(S(=O)(=O)N2CCCCC2)c1 | 8 | 5.1 | 8 | 8 | -6 | 2984 | 3
Cc1cc(OC(C)C(=O)NC2CC(C)(C)NC(C)(C)C2)c2c(C)cc(=O)oc2c1 (configuration not stated) | 4 | 2.4 | 2 | -5 | 4 | 6442 | -3
c1ccc(-c2ncc(CN3CCN(c4ccccn4)CC3)[nH]2)cc1 | 0 | 0.7 | -6 | -8 | -65 | 6710 | 3

High-throughput results as filed in PubChem.
